FGF22 binding – binders of human FGF22 protein, primary screen, FGF22 synaptogenesis inhibitor project, biophysical, thermal shift, single point | 1.5% of 340,000 active | calls only at 9.99 µM | recombinant FGF22 thermal shift, SYPRO orange fluorescence; percent of sucrose octasulfate shift, DMSO zero;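 active = melting point raised past a set limit in the mean and every replicate; inconclusive = no clear call; three in four hits are not shown here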
Target sequence (Q9HCT0 whole entry, looked up): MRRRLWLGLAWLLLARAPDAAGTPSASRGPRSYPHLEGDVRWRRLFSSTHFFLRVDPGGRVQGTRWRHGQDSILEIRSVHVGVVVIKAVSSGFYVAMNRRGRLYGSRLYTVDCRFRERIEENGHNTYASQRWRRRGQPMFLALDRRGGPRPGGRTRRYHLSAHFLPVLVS
MLL AF4-AF9 inh – inhibitors of AF4 peptide binding to AF9, primary screen, biochemical, AlphaScreen, biotin-AF4 peptide, FLAG-AF9, single point | inhibition, % at 10 µM | Protein AF-9 (Homo sapiens), P42568 | AID 651704, 2012 | 0.47% of 350,000 active;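 active = every replicate reaching a set inhibition limit, whatever the replicate mean, cut at about 25% in these data; inconclusive = mean inhibition reaches that limit but some replicates miss it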;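 note: 0% = plate neutral control median and 100% = total signal loss; the record names both 10 and 1 µM as test concentration; the first replicate is given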
Target sequence (P42568 whole entry, looked up): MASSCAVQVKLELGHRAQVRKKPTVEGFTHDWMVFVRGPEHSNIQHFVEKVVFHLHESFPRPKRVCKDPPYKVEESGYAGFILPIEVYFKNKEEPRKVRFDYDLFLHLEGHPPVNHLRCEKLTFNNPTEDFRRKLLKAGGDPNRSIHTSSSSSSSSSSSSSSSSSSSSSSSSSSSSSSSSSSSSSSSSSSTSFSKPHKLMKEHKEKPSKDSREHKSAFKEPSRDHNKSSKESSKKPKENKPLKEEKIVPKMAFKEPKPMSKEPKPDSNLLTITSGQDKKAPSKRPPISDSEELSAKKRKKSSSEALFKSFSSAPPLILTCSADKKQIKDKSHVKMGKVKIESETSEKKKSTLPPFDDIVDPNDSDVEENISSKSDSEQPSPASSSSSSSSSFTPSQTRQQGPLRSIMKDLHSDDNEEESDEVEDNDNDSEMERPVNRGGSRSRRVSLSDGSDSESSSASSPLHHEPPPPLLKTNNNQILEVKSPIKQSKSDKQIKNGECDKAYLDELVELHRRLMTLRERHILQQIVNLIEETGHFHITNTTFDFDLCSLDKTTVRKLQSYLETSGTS
Ecoli growth – E. coli growth inhibition, primary screen, OD600. OD600 absorbance (test concentration not listed). Escherichia coli growth, 23 h; stronger effect = lower value. AID 1053175, 2014. 0.21% of 330,000 active;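 active = OD600 absorbance below the run mean of sample wells minus 3.6 SD, in any replicate, cut at about 0.56 in these data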;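 note: stock transfer was 300 nL into about 60 µL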
HNF4A DNA FP – change in binding of human HNF4A to DNA, primary screen, biochemical, fluorescence polarization, FITC-DNA; Hepatocyte nuclear factor 4-alpha (Homo sapiens), P41235; activity change, % at 10 µM; 1 h; 0.3% of 360,000 active; in the data active = activity change above about 30%, passing the limit was not always enough;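 note: controls were the assay level and a saturating level of protein; the project sought stronger binding though the title names inhibitors; some compounds called inactive have numbers as strong as hits; positive values seem to mean higher polarization but the record does not say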
Vif A3G – inhibitors of Vif binding to APOBEC3G peptide, primary screen, biochemical, TR-FRET, GST-Vif 1-94, biotin-A3G peptide, dose response retest (AID 1117319); Virion infectivity factor (Human immunodeficiency virus type 1 group M subtype B (isolate …; TR-FRET GST-Vif / biotin-A3G peptide binding; higher % means a stronger effect; test concentration not given here; strong numbers were not always called active; 0.57% of 260,000 active; one-dose inhibition, %; IC50 in µM for titrated hits;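 active = above the screen mean plus three standard deviations and confirmed in dose response; inconclusive = results disagree or hit not tested in dose response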;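 note: Vif residues 1-94 fused to GST binding biotinylated APOBEC3G peptide 110-148; 0% = full assay without inhibitor and 100% = GST in place of GST-Vif; retest series ran down from 100 µM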
Ecoli rRNA inh – reduced GFP signal of wild-type E. coli, primary screen, bacterial rRNA inhibitor project, GFP/RFP fluorescence, OD600, single point; E. coli WT GFP vs humanized-ribosome RFP mutants, 24 h; stronger effect = lower value; DMSO median 0, no signal -100; GFP signal change (wild-type ribosome), % (concentration not given with the values); 1.6% of 350,000 active; AID 720706, 2013;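 active = significant combined selectivity score with lowered wild-type GFP, culture density cut under 30%, mutant RFP and density less affected; inactive = any of these conditions unmet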; note: one replicate is shown; some compounds called inactive have numbers as strong as hits
ALR H2O2 inh – inhibitors of human ALR sulfhydryl oxidase, primary screen, biochemical, H2O2 detection, HRP-luminol luminescence, single point | 3.8% of 290,000 active | FAD-linked sulfhydryl oxidase ALR (Homo sapiens), P55789 | inhibition, % (no concentration beside the values) | purified ALR, DTT oxidation | AID 485317, 2010;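 active = mean and each replicate at 75% or more; inconclusive = only one of the two met; inactive = neither met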;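 note: stock transfer was 7.5 nL into about 7.5 µL; 0% = neutral wells and 100% = wells with inactivated enzyme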
Target sequence (P55789 whole entry, looked up): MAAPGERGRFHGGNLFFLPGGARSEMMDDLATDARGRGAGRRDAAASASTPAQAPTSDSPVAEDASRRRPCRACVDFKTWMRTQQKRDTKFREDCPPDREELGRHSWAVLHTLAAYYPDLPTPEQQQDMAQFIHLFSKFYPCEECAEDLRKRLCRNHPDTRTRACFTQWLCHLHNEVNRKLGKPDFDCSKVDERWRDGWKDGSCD
Ecoli rRNA inh OD600 – recorded beside Ecoli rRNA inh, whose call it bears; OD600 change, %; measured here: OD600 growth;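 optical density of the mix in the first replicate; 0 = DMSO median and -100 = no signal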
Ecoli rRNA inh RFP – second read-out of Ecoli rRNA inh, no call of its own (marks repeat the call); RFP signal change, %; measured here: RFP humanized mutant strains;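 first replicate; 0 = DMSO median and -100 = no signal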
* hit, by the source's call; i = inactive; ? = inconclusive; / = not tested or not shown; & = joins results of further samples. Only part of the results is shown. The share of hits here may be higher or lower than overall.

SMILES	FGF22 binding	MLL AF4-AF9 inh	Ecoli growth	HNF4A DNA FP	Vif A3G	Ecoli rRNA inh	Ecoli rRNA inh OD600	Ecoli rRNA inh RFP	ALR H2O2 inh
Cc1ccc(S(=O)(=O)N(C)C[C@H]2Oc3ccc(NC(=O)Nc4cccc5ccccc45)cc3CC(=O)N([C@H](C)CO)C[C@H]2C)cc1	i	0.5	/	/	/	-2	8	2.3	/
O=C(CCCn1c(=S)[nH]c2cc3c(cc2c1=O)OCO3)N1CCN(c2ccc(Cl)cc2)CC1	/	/	0.72	-1.4	0%	/	/	/	-4
Cc1ccc(CN2C(=O)c3ccccc3C2C(=O)NCC2CCCO2)cc1 (centres undefined)	/	/	0.73	0.5	8%	/	/	/	-4
CC(=O)c1ccc(NC(=O)CSCCO)cc1	/	/	0.69	-0.3	0%	/	/	/	/
COc1ccc2c(c1)nc(NCCO)n2C	/	/	0.67	-2.5	27%	/	/	/	25
O=C(C[C@@H]1CC[C@@H]2[C@H](COC[C@@H](O)CN2C(=O)c2cnccn2)O1)NCc1ccc(F)cc1	i	-0.8	/	/	/	1	5	-3.7	/
Cc1ccc(-n2c(-c3ccc(Br)cc3)c[n+]3c2CCc2ccc4cccnc4c2-3)cc1	/	/	0.49*	1.1	-16%&-10%	/	/	/	6
CCc1ccc(NC(=S)Nc2cc(C(=O)O)ccc2N2CC3CC(C2)c2cccc(=O)n2C3)cc1 (centres undefined)	i	?	0.66	1.4	3%	-26	-35	2.9	-3
CC(=O)C1=C(O)C(=O)N(c2ccc(O)cc2)C1c1ccccc1 (centres undefined)	i	1.3	0.67	2.1	-9%	21	5	-3.0	70
O=C(Nc1ccccc1)N[C@@H]1CC[C@@H](CCNC(=O)c2ccccc2F)O[C@H]1CO	i	2.4	/	/	/	2	-6	-0.6	/
CCOC(=O)c1cc(-c2cccnc2)nn1-c1ccccn1	/	/	0.72	-1.3	2%	/	/	/	-24
CCOc1ccc(CN(C)C(C)C(=O)NCCc2ccc(F)cc2)cc1 (centres undefined)	i	-0.3	0.68	2.7	/	3	0	2.0	-1
COc1ccc(CSc2nc(O)cc(=O)n2CC(C)C)cc1F	i	-0.8	0.68	-0.6	/	4	12	1.1	99*
CCOC(=O)C1CCN(C(=O)COC(=O)CCOc2ccc(C)cc2)CC1	/	/	0.7	-2.3	-1%	/	/	/	-10
CN(C)CCN1CCN(C(c2ccnc3ccccc23)c2nnnn2-c2ccc3c(c2)OCCO3)CC1 (centres undefined)	i	0.6	/	-1.1	/	4	12	-5.5	/
CCOc1cccc(-c2nnc(SCC(=O)NC3CC3)n2C)c1	i	0.7	0.68	0.8	-5%	0	4	-2.9	-17
C[C@@H]1CCCCO[C@@H](CN(C)Cc2ccc(C(F)(F)F)cc2)[C@@H](C)CN([C@H](C)CO)C(=O)c2cc(NC(=O)CCCCCC(=O)Nc3ccccc3N)ccc2O1	i	1.0	/	/	/	-1	-6	0.1	/
C=CCOc1ccc(C(=O)c2ccccc2)c(OCC(=O)NC2(C#N)CCCC2)c1	i	-5.1	0.62	-0.6	0%	1	12	-1.8	-16
Cc1nc(-c2coc3cc(O)c(C)cc3c2=O)cs1	/	/	0.72	-9.1	-6%	/	/	/	1
CCCNC(=O)N1CC2(CCN(C(=O)CC)CC2)c2c(n(C)c3cc(OC)ccc23)[C@@H]1CO	i	1.5	/	/	/	2	4	-3.7	/
COc1ccc(OC)c(S(=O)(=O)NCC(c2ccc3c(c2)OCO3)N2CCOCC2)c1 (centres undefined)	i	-22	0.66	0.1	0%	-3	6	-0.6	-4
Cc1ccc(F)c(CNC(=O)C2(C)CCCN2C(=O)C(C)C)c1F (centres undefined)	i	1.0	/	0.4	/	5	5	-11	/
Cc1coc2c1c(C)cc1oc(=O)c(CC(=O)NCCCCCC(=O)O)c(C)c12	i	0.2	0.64	1.6	-4%	-10	-28	-2.0	/
Cc1ccsc1/C=C1/SC(=O)N(CC(=O)N2CCOCC2)C1=O	/	/	/	-1.6	-1%	/	/	/	-9
COc1cc(N2CCCC2)ccc1[N+](=O)[O-]	/	/	0.69	5.5	-7%	/	/	/	-2
Next results.
SMILES	FGF22 binding	MLL AF4-AF9 inh	Ecoli growth	HNF4A DNA FP	Vif A3G	Ecoli rRNA inh	Ecoli rRNA inh OD600	Ecoli rRNA inh RFP	ALR H2O2 inh
O=C(OCc1ccc(Br)cc1F)c1cc2ccccc2oc1=O	i	-1.8	0.64	2.0	/	8	5	-0.9	0
C=CCCCCCCCCC(=O)NNC1CC(=O)N(c2ccccc2)C1=O (centres undefined)	i	/	0.63	1.8	-4%	/	/	/	0
Cc1cc(C)c(C#N)c(N2CCOCC2)n1	/	/	0.79	1.6	5%	/	/	/	/
CO[C@H]1CN(C)C(=O)c2cc(NC(=O)Nc3ccccc3)ccc2OC[C@H](C)N(C(=O)Nc2c(C)noc2C)C[C@H]1C	i	0.7	/	/	/	-2	-1	1.4	/
C[C@H]1CCCCO[C@H](CN(C)C(=O)CCCN(C)C)[C@@H](C)CN([C@@H](C)CO)C(=O)c2cc(N(C)C)ccc2O1	i	-4.3	/	/	/	0	4	-2.9	/
CC1=C(C(=O)NCc2ccc3c(c2)OCO3)C2(CCC(C)CC2)OC1=O (centres undefined)	i	-2.2	0.8	4.5	4%	5	-12	-3.8	/
Cc1ccc(CN2CCCN(Cc3ccc(F)cc3Cl)S2(=O)=O)cc1	i	-2.8	0.68	5.2	-4%	-7	-17	0.5	-17
CCN(CCn1cccn1)Cc1c(C(=O)N2C[C@@H](C)O[C@@H](C)C2)nc2ccc(Cl)cn12	i	-0.6	0.66	-4.6	22%	19	12	5.3	-4
COc1cc2nc(NC(=O)c3ccc(Cl)cc3)[nH]c(=O)c2cc1OC	/	/	0.74	-1.1	8%	/	/	/	0
COc1ccc(C(=O)N/C(=C\c2ccc(SC)cc2)C(=O)NCCCn2ccnc2)cc1OC	i	0.4	0.69	2.6	-2%	21	13	-0.3	-2
Cc1cccc2nc3ccccc3nc12	i	-1.1	0.66	3.4	1%	-2	11	-9.6	1
O=C(CSc1nnc(CNC(=O)c2ccccc2)o1)c1ccc(Cl)cc1	i	-3.7	0.69	0.7	-3%	-15	-12	-2.5	59
COC(=O)[C@@]1(C)[C@H]2C(=O)N(Cc3ccccc3)C(=O)[C@H]2[C@H]2CN=C(SCC3CC3)N21	i	-1.3	0.69	-1.2	-3%	-48	-80	-15	/
CC(Sc1nnc(C2CC2)n1-c1ccccc1)C(=O)N1CCNC1=O (centres undefined)	i	-15	0.64	-0.4	4%	9	10	-1.4	/
COc1ccc(NC(=O)CN2C(=O)c3ccccc3S2(=O)=O)cc1OC	i	0.5	0.6	2.0	/	7	10	-0.4	-15
COc1ccc(-c2c(C(=O)c3ccccc3)[nH]c(N)c2C(=O)c2ccccc2)cc1OC	/	?	/	1.4	/	-2	-22	-5.2	/
COc1ccc(NC(=O)N(C)C[C@@H]2Oc3ccc(N(C)C)cc3CC(=O)N([C@@H](C)CO)C[C@@H]2C)cc1	i	-2.8	/	/	/	-1	1	-3.2	/
CN1[C@@H]2Cn3c(ccc(C4=CCCCC4)c3=O)[C@H]1[C@@H](C(=O)NCc1cc(F)cc(F)c1)[C@@H]2CO	i	1.7	/	/	/	-8	-14	5.5	/
COc1cc(/C=N\NS(=O)(=O)c2ccccc2)cc(OC)c1OC	i	-1.6	/	-3.0	2%	2	3	-2.0	-1
CC(C)c1ccc(N(CC(=O)NCCSCc2ccco2)S(C)(=O)=O)cc1	i	2.4	0.67	-4.3	-1%	-6	-11	0.7	0
CCOC(=O)C(C)Oc1ccc(NC(=O)C(Cl)(Cl)Cl)cc1 (centres undefined)	i	1.5	0.64	-1.1	-4%	-4	-1	0.2	-29
CCCC1CC(CCc2ccccc2)OS(=O)(=O)N1 (centres undefined)	i	-4.9	0.69	-3.9	/	-6	-4	-4.7	1
CCOC(=O)Cn1c(-c2cccnc2Cl)nc2ccccc21	/	/	0.65	-4.2	?	/	/	/	-9
COc1ccc2cc(-c3ccon3)ccc2c1	i	-3.1	0.69	1.2	-7%	4	-3	1.1	/
CCOCCCN(C)C1CCN(C(=O)c2oc3ccccc3c2NC(=O)c2ccc(F)cc2)CC1	i	0.0	/	-2.1	/	4	6	0.6	-10

Reformatted: 4 of the compounds above
Cc1cccc2nc3ccccc3nc12
  FGF22 binding: i
  MLL AF4-AF9 inh: -1.1
  Ecoli growth: 0.66
  HNF4A DNA FP: 3.4
  Vif A3G: 1%
  Ecoli rRNA inh: -2
  Ecoli rRNA inh OD600: 11
  Ecoli rRNA inh RFP: -9.6
  ALR H2O2 inh: 1

Cc1cc(C)c(C#N)c(N2CCOCC2)n1
  FGF22 binding: /
  MLL AF4-AF9 inh: /
  Ecoli growth: 0.79
  HNF4A DNA FP: 1.6
  Vif A3G: 5%
  Ecoli rRNA inh: /
  Ecoli rRNA inh OD600: /
  Ecoli rRNA inh RFP: /
  ALR H2O2 inh: /

CCOCCCN(C)C1CCN(C(=O)c2oc3ccccc3c2NC(=O)c2ccc(F)cc2)CC1
  FGF22 binding: i
  MLL AF4-AF9 inh: 0.0
  Ecoli growth: /
  HNF4A DNA FP: -2.1
  Vif A3G: /
  Ecoli rRNA inh: 4
  Ecoli rRNA inh OD600: 6
  Ecoli rRNA inh RFP: 0.6
  ALR H2O2 inh: -10

Cc1ccc(CN2CCCN(Cc3ccc(F)cc3Cl)S2(=O)=O)cc1
  FGF22 binding: i
  MLL AF4-AF9 inh: -2.8
  Ecoli growth: 0.68
  HNF4A DNA FP: 5.2
  Vif A3G: -4%
  Ecoli rRNA inh: -7
  Ecoli rRNA inh OD600: -17
  Ecoli rRNA inh RFP: 0.5
  ALR H2O2 inh: -17

(next part)
SMILES	FGF22 binding	MLL AF4-AF9 inh	Ecoli growth	HNF4A DNA FP	Vif A3G	Ecoli rRNA inh	Ecoli rRNA inh OD600	Ecoli rRNA inh RFP	ALR H2O2 inh
CN(C)c1ccc(NS(=O)(=O)c2cccc(Cl)c2)cc1	/	/	0.68	0.2	30%	/	/	/	99*
CCOc1ccccc1-c1cc(-c2n[nH]c(=S)n2CC)c2ccccc2n1	i	4.6	0.69	3.2	?	-12	-16	4.1	10
CCC(=O)N(C)C[C@@H]1Oc2cc(-c3cccc(OC)c3)ccc2S(=O)(=O)N([C@@H](C)CO)C[C@@H]1C	i	-2.9	/	/	/	-8	-7	-2.5	/
CCn1c(O)c(C2=c3ccccc3=NC2=O)c2cc(Br)ccc21	/	-0.7	0.68	/	/	14	16	1.7	-7
O=C1C(NS(=O)(=O)c2cccs2)=C(N2CCOCC2)C(=O)c2ccccc21	i	8.3	0.68	0.5	3%	14	-13	-0.2	/
C[C@@H]1CN([C@H](C)CO)C(=O)c2cc(-c3cccnc3)cnc2O[C@@H]1CN(C)C(=O)Nc1ccc2c(c1)OCO2	i	-0.6	/	/	/	6	7	-2.2	/
CC(C)(C)[C@H]1COC(=O)[C@@H](NC(=O)OCC2c3ccccc3-c3ccccc32)C/C=C\C[C@@H](CC(=O)N[C@@H](CO)Cc2ccccc2)C(=O)N1	i	6.5	/	4.3	/	13	7	3.1	7
CC(=O)c1ccc(NC(=S)NC(=O)/C=C/c2ccccc2)cc1	i	-0.2	0.7	0.2	/	16	11	3.0	-2
